High-throughput results deposited in PubChem BioAssay by several laboratories.
Bead autofluor – flagged as autofluorescent in microsphere protease counterscreen. compound autofluorescence counterscreen, microsphere flow cytometry; active compounds read high. actives 3.1% (n = 360,000). AID 624483. fluorescence intensity (test concentration not listed);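 active = at least 3 SD above the mean of all compounds, about 16000 in these data; inconclusive = too few beads counted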;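 also: 100 nL of 1 mM stock went into each well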
PrP UTR inh – inhibition of PrP 5' UTR reporter expression. cell-based PrP 5' UTR mRNA reporter, plate reader. inhibition, % (no concentration beside the values). actives 0.35% (n = 340,000);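 active = every replicate at 50% or more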;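 also: 0 = median of the neutral control wells; tested in H4 reporter cells; numbers are from one replicate; inactives centre near -14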
Numbers without * were called inactive; ? = inconclusive. Not all compounds are listed (hit frequency here may not be typical).

Results follow in this order: Bead autofluor | PrP UTR inh
#1 Cc1ccc(S(=O)(=O)N2CCN(C(=O)COC(=O)c3cc([N+](=O)[O-])ccc3NCCO)CC2)c(C)c1
    4242 | 4
#2 O=C1C=C(c2ccc(F)cc2OCc2ccccc2)C[C@@H](c2ccc(Cl)cc2)C1
    4214 | -12
#3 COCC(=O)N(C)[C@H]1C[C@H]2c3cc(Oc4ccccc4C)ccc3CCN2C(=O)[C@H]1[C@H](C)O
    3594 | -20
#4 CC1(C)O[C@@H]2[C@H](O1)[C@@H](CO)O[C@H]2n1ccc(=O)[nH]c1=O
    3922 | -15
#5 C[C@@H]1O[C@@H](OC[C@@H]2O[C@H](Oc3c(-c4ccc(O)cc4)oc4cc(O)cc(O)c4c3=O)[C@@H](O)[C@H](O)[C@H]2O)[C@H](O)[C@H](O)[C@H]1O
    4233 | -18
#6 COc1ccc(S(=O)(=O)Nc2ccc3c(c2)C(=O)N([C@H](C)CO)C[C@H](C)[C@@H](CN(C)C(=O)NC(C)C)O3)cc1
    4022 | -2
#7 CCOc1ccc(NC(=O)c2cccc(-n3cccc3)c2)cc1S(=O)(=O)N1CCOCC1
    3535 | -17
#8 CC(C)(C)OC(=O)N1CCC(C(=O)Nc2ccc(C(=O)N3CCCCC3)cc2)CC1
    3078 | -2
#9 O=[N+]([O-])c1ccc(COc2ccc(CN3CCCC3)cc2)cc1
    4232 | -58
#10 O=C(CNC(=O)c1ccc(Cl)cc1)NCc1ccccn1
    4091 | -11

The last two records of the section above lead into the next:
Results follow in this order: Bead autofluor | PrP UTR inh
#9 O=[N+]([O-])c1ccc(COc2ccc(CN3CCCC3)cc2)cc1
    4232 | -58
#10 O=C(CNC(=O)c1ccc(Cl)cc1)NCc1ccccn1
    4091 | -11
#11 Cc1cc(=O)[nH]c(NC(=O)Cc2ccccc2)n1
    3914 | -37
#12 NC(=O)c1ncn([C@@H]2O[C@H](CNCc3ccccc3OCc3ccc(Cl)cc3Cl)[C@@H](O)[C@H]2O)n1
    3135 | -10
#13 C=CCCC1CN(CCCC)S(=O)(=O)c2c(F)cccc2O1 (stereo unspecified)
    3466 | -6
#14 O=C(/C=C/c1ccc2c(c1)S(=O)(=O)N(Cc1ccccc1)[C@H]2CC(=O)N1CCOCC1)N1CCOCC1
    2930 | 4
#15 CC1O[C@@H](OC2C(COC3OC(CO)C(O)[C@H](O)C3O)OC(OC3CC[C@]4(C)C(CC[C@@]5(C)[C@@H]4CC=C4[C@@H]6CC(C)(C)CC[C@]6(CO)C(O)C[C@]45C)C3(C)C)C(O)C2O)C(O)C(O)C1O (stereo partly specified)
    3943 | -8
#16 CCCCN1CC(COc2ccccc2)Oc2cccc(F)c2S1(=O)=O (stereo unspecified)
    3302 | -21
#17 O=C(NC(=O)c1c(F)cccc1F)Nc1cccc(Oc2ncc(Cl)cn2)c1
    3519 | -9
#18 OCC[C@H]1C[C@@H](O)[C@H](O)[C@@]2(Cc3ccccc3CO2)O1
    3967 | -16
#19 COC(=O)C1=C(C)N(Cc2ccccc2)C(=NCCc2ccccn2)N[C@H]1c1cccc(C(F)(F)F)c1
    3949 | -32
#20 COC(=O)[C@@]12CCCCN1[C@H](c1ccc(-c3ccc4c(c3)OCO4)cc1)[C@H]1C(=O)N(C)C(=O)[C@H]12
    4299 | -22
#21 CCCCCCCCNS(=O)(=O)CCNC1CC1
    3582 | -2
#22 Nc1ncnc2c1nc(N1CCCCC1)n2[C@@H]1O[C@H](CO)[C@@H](O)[C@H]1O
    3638 | 7
#23 CC(C)(C)c1ccc(NC(=O)COC(=O)C2CCCC2)cc1
    3899 | -22
#24 O=S(=O)(c1ccc(Br)cc1F)N1CCCCC1CCO (stereo unspecified)
    3843 | -16
#25 CC[N+]1(C)CCC(O)(c2ccc(OC)cc2)C(C(=O)c2ccc(OC)cc2)C1 (stereo unspecified)
    3662 | -9
#26 C/C(=N\NS(=O)(=O)c1ccc([N+](=O)[O-])cc1)c1ccc(NC(=O)c2ccco2)cc1
    3704 | -29
#27 COC(=O)C1=C(c2cccc(C#N)c2)C[C@@H]2CC[C@H]1N2C(=O)N1CCc2cc(OC)c(OC)cc2C1
    3082 | -4
#28 COC(=O)c1ccc(C(NC(=O)OCc2ccccc2)/C(F)=C/[C@@H](C)C(=O)NCc2ccc(OC)c(OC)c2)cc1 (stereo partly specified)
    3939 | -21
#29 CC(C)C[C@@H](CN)NC(=O)c1nc[nH]c1C(=O)N[C@@H](C)C(=O)CNC[C@H](C)NC(=O)c1nc[nH]c1C(=O)N[C@@H](Cc1ccccc1)C(=O)O
    3637 | -37
#30 COC(C[C@@H]1O[C@@H]1[C@H](O)COCc1ccccc1)OC
    2943 | -11
#31 C[C@H](CO)N1C[C@H](C)[C@@H](CN(C)Cc2ccc(Oc3ccccc3)cc2)Oc2c(NC(=O)C3CC3)cccc2C1=O
    4116 | -3
#32 C[N+](C)(C)CCC(=O)N1C/C(=C/c2ccccc2)C(=O)/C(=C\c2ccccc2)C1
    4045 | 46
#33 CCOC(=O)[C@@H]1[C@H]2COc3ccc(Br)cc3[C@@H]2N2C(=O)N(c3cccc(Cl)c3)C(=O)[C@@]12C
    4061 | -13
#34 Cc1ccccc1N1CCN(S(=O)(=O)C[C@]23CCC(CC2NC(=O)[C@@H](N)CCS(C)(=O)=O)C3(C)C)CC1 (stereo partly specified)
    6185 | -9
#35 O=C(N/N=C/c1ccoc1)c1cccc([N+](=O)[O-])c1
    ? | -8
#36 O=C(C[C@H]1C/C=C\C[C@H](NC(=O)OCC2c3ccccc3-c3ccccc32)C(=O)OC[C@@H]2CCCN2C1=O)N[C@H](CO)Cc1ccccc1
    3398 | -15
#37 C[C@@H]1COC(=O)[C@H](Cc2ccc(F)cc2)C/C=C\C[C@@H](CC(=O)N[C@H](CO)Cc2ccccc2)C(=O)N1
    3948 | -20
#38 Cc1cccc(NC(=O)c2nc[nH]c2C(=O)N[C@@H](C)c2ccccc2)c1
    3182 | -30
#39 O=C(NCCCOc1ccc([N+](=O)[O-])cc1Cl)OCc1ccccc1
    3271 | -21
#40 O=c1cc(Cc2ccc([N+](=O)[O-])cc2)[nH]c(=O)[nH]1
    4211 | -3
#41 COc1cc(/C=C(\C#N)c2nc3ccccc3s2)ccc1OCC(=O)Nc1ccccc1
    3307 | -55
#42 CN1OC[C@@H]2CN(Cc3ccccc3)[C@H](c3cccc(-c4ccc(C#N)cc4)c3)C[C@@H]21
    3358 | -8
#43 COCC(=O)N1C[C@H]2CON(C)[C@H]2C[C@H]1c1cccc(-c2ccc(C#N)cc2)c1
    3740 | -6
#44 C#CCN1C=CC(=O)[C@@H](OC(=O)Nc2ccc(C)cc2)[C@H]1c1ccccc1Br
    2775 | -11
#45 CN(C(=O)c1ccc(NC(=O)Cc2cccc(NC(=O)C3CCN(C(=O)c4ccccc4)CC3)c2)cc1)C1CC1
    2736 | -17
#46 COC(=O)C12CCc3c(ccc4cc(OC)ccc34)C1=CC(=O)C2 (stereo unspecified)
    3998 | -16
#47 O=C(NN=Cc1ccccc1)C(Oc1ccccc1)c1ccccc1 (stereo unspecified)
    3195 | -12
#48 COc1cc(C2c3cc4c(cc3OC(C)(N3CCCC3)C2C)OCO4)cc(OC)c1OC (stereo unspecified)
    3802 | -29
#49 CC(C)NC(=O)N(C)C[C@H]1Oc2c(NC(=O)C3CC3)cccc2C(=O)N([C@H](C)CO)C[C@@H]1C
    4008 | -2
#50 CCN1CCN(S(=O)(=O)c2ccc(Cl)c(C(=O)N(CCc3ccccc3)Cc3ccccc3)c2)CC1
    3130 | -4
#51 COC(=O)C1=C(c2ccc(OC(F)(F)F)cc2)C[C@@H]2CC[C@H]1N2C(=O)NCC1CC1
    2989 | -6
#52 COc1ccc(CN2CC[C@H]3C=CCc4cccc(c43)C2)cc1
    4435 | -11
#53 O=C(N/N=C\c1ccc(CNS(=O)(=O)c2ccc(Cl)cc2)o1)C(=O)Nc1ccc(Oc2ccccc2)cc1
    2684 | -7
#54 CCOC(=O)[C@H]1[C@H]2COc3ccccc3[C@@H]2N2C(=O)[C@@H](CO)NC(=O)[C@@]12C
    4737 | -30
#55 C#C[C@]1(O)CC[C@H]2[C@@H]3CCC4=Cc5nc6nc7ccccc7n6cc5C[C@]4(C)[C@H]3CC[C@@]21C
    4740 | 4
#56 O=C1NCCOC(=O)[C@@H](Cc2ccc(F)cc2)C/C=C\C[C@@H]1CC(=O)N(CCO)Cc1ccccc1
    3867 | -13
#57 CC(C)=CCNc1ncnc2c1c(C#N)cn2C1OC(CO)C(O)C1O (stereo unspecified)
    4128 | -1
#58 COc1ccc(-c2ccc3c(c2)C2CC3CCN2)cc1 (stereo unspecified)
    3905 | -23
#59 COC(=O)C1=C(c2ccccc2OCc2ccccc2)C[C@@H]2CC[C@H]1N2C(=O)NCc1ccc(OC)c(OC)c1
    3450 | -11
#60 COC(=O)C1=C(c2ccc(Cl)c(C(F)(F)F)c2)C[C@@H]2CC[C@H]1N2C(=O)NCc1ccc2c(c1)OCO2
    4042 | -9

Next section.
Results follow in this order: Bead autofluor | PrP UTR inh
#61 CC(C)(C)C(=O)N1CCC2CC1c1cc(Cl)ccc12 (stereo unspecified)
    3758 | -17
#62 O=[N+]([O-])c1ccc2c(c1)C(=NO)c1cc(F)ccc1-2
    3326 | -50
#63 Cc1ccc(S(=O)(=O)N2[C@@H](c3ccccc3)C(C(=O)O)=CC[C@H]2c2ccc(Cl)c(Cl)c2)cc1
    3442 | -14
#64 Cn1cnc([N+](=O)[O-])c1Sc1nc(N)nc2c1ncn2C1CC(O)C(CO)O1 (stereo unspecified)
    3747 | -1
#65 COC1OC(CO)C(N(C)C(C)=O)C1O (stereo unspecified)
    5153 | -9
#66 C=C1[C@H]2CC[C@H]3[C@]4(C)C[C@H](O[C@H]5O[C@H](CO)[C@@H](OS(=O)(=O)O)[C@H](OS(=O)(=O)O)[C@H]5OC(=O)CC(C)C)C[C@@H](C(=O)O)[C@H]4CC[C@]3(C2)[C@H]1O
    4124 | -9
#67 COc1ccc2cc(CO)c3cc(OC)c(OC)cc3c2c1
    3998 | -1
#68 OCC[C@H]1C[C@@H](O)[C@H](O)[C@]2(CCc3ccccc3O2)O1
    3987 | -11
#69 O=C1C=C(NCCc2cc(Br)c(O)c(Br)c2)C(=O)c2ncccc21
    3619 | -36
#70 COC(=O)[C@@H](Cc1c[nH]c2ccccc12)NCc1cccc(B(O)O)c1
    3824 | -15

Profiles from above. Order of values: Bead autofluor	PrP UTR inh
O=[N+]([O-])c1ccc2c(c1)C(=NO)c1cc(F)ccc1-2 is listed with 3326	-50
COC1OC(CO)C(N(C)C(C)=O)C1O (stereo unspecified) is listed with 5153	-9
COc1ccc2cc(CO)c3cc(OC)c(OC)cc3c2c1 is listed with 3998	-1
Cc1ccc(S(=O)(=O)N2[C@@H](c3ccccc3)C(C(=O)O)=CC[C@H]2c2ccc(Cl)c(Cl)c2)cc1 is listed with 3442	-14
COC(=O)[C@@H](Cc1c[nH]c2ccccc12)NCc1cccc(B(O)O)c1 is listed with 3824	-15

New compounds follow
Results follow in this order: Bead autofluor | PrP UTR inh
#71 OC1COC(c2ccccc2)OC1C1OC(c2ccccc2)OCC1O (stereo unspecified)
    4168 | -2
#72 CN(C)C1=NC[C@H](Cc2ccccc2)N1CCC1CCCC1
    4191 | 3
#73 CC(=O)Oc1ccc(OC(C)=O)c2c1C1C=CC2CC1
    2878 | -19
#74 COC(=O)C1=C(c2ccc(-c3ccccc3)c(F)c2)C[C@@H]2CC[C@H]1N2C(=O)N1CCC(O)CC1
    4162 | -10
#75 COc1ccc(Cl)cc1CC=NNC(=O)c1ccncc1
    4096 | -8
#76 COc1ccc2c(c1)OC[C@H]1[C@H]2N2C(=O)CN(Cc3ccco3)C(=O)[C@@]2(C)[C@H]1c1ccccc1
    3893 | -10
#77 C=C[C@@H]1c2c(F)cccc2N(S(=O)(=O)c2ccc(C)cc2)[C@H](c2ccc(OC(C)=O)cc2)C1(C#N)C#N
    3988 | 2
#78 COc1ccc([C@H]2CC(=O)C=C(c3ccc(Cl)c(F)c3)C2)cc1
    2922 | -15
#79 CCN1CC(CN(C)Cc2nc(COc3ccccc3)no2)CC1=O (stereo unspecified)
    4326 | -39
#80 COc1ccc2c(c1)OC[C@H]1[C@@H]2N2C(=O)[C@@H](C)NC(=O)[C@@]2(C)[C@H]1c1ccccc1
    4412 | -9
#81 CC(C)(C)OC(=O)C[C@@H]1C/C=C\C[C@H](CC(=O)N[C@H](CO)Cc2ccccc2)C(=O)N2CCC[C@H]2COC1=O
    4064 | -3
#82 CC(C)(C)OC(=O)C[C@H]1C/C=C\C[C@@H](CC(=O)N(CCO)Cc2ccccc2)C(=O)N[C@H](Cc2c[nH]c3ccccc23)COC1=O
    4213 | -33
#83 CC(=O)OC1CCC2(C)C(CCC3C4CC(N5CC5)C(C(C)=O)C4(C)CC(=O)C32)C1 (stereo unspecified)
    3197 | 2
#84 COC(=O)C1=C(c2cccc(C#N)c2)C[C@@H]2CC[C@H]1N2C(=O)NCc1ccc(F)cc1
    3377 | -21
#85 NC(=S)NN=C1c2ccccc2-c2c(F)c(F)c(F)c(F)c21
    4257 | -11
#86 COc1ccc(NS(=O)(=O)c2cccc(C(=O)N/N=C(\C)c3cccnc3)c2)cc1
    6325 | -5
#87 Cc1ccc(C(=O)N2[C@@H]3CN(C)C(=O)[C@@]2(Cc2ccccc2)[C@H]2C(=O)N(C)C(=O)[C@@H]32)cc1
    3478 | -14

Look-ups from the results shown:
Value for entry 69 in PrP UTR inh: -36
Value for entry 41 in PrP UTR inh: -55
Value for entry 52 in Bead autofluor: 4435
